# Bioassay records deposited in PubChem by Broad Institute.
# MLL AF4-AF9 inh: inhibitors of AF4 peptide binding to AF9, primary screen, biochemical, AlphaScreen, biotin-AF4 peptide, FLAG-AF9, single point. AID 651704, 2012. 0.47% of 350,000 active. inhibition, % at 10 µM;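 active means every replicate reaching a set inhibition limit, whatever the replicate mean, cut at about 25% in these data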;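 further: 0% = plate neutral control median and 100% = total signal loss; the record names both 10 and 1 µM as test concentration; the first replicate is given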
# Target sequence (P42568 whole entry, looked up): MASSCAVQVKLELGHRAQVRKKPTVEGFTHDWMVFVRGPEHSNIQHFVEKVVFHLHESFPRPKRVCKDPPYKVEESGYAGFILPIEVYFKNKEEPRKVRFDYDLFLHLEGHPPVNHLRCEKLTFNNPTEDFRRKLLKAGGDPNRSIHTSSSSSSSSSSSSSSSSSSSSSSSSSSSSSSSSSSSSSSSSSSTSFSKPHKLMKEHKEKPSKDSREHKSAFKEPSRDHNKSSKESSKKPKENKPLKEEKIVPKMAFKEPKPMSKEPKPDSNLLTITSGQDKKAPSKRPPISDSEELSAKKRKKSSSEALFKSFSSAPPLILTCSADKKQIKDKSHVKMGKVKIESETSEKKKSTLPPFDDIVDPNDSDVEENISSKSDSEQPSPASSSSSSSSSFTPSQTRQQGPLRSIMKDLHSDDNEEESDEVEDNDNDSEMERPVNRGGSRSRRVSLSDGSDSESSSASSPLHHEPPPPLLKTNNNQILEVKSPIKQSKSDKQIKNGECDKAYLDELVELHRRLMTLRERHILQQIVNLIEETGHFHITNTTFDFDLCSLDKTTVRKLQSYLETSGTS
# Numbers without * were called inactive; & = joins results of further samples. An excerpt; count on the stated rates, not on these rows.
MLL AF4-AF9 inh	structure
1.3	CO[C@H](CN(C)Cc1nccs1)[C@H](C)CN([C@H](C)CO)S(=O)(=O)c1ccc(F)cc1
-4.3	C[C@H](CO)N1C[C@H](C)[C@H](CN(C)C(=O)C2CCC2)Oc2cc(C3=CCCC3)ccc2S1(=O)=O
-3.3	COC(=O)C[C@H](NC(=O)Cn1cc(C)c(=O)[nH]c1=O)C(=O)OC
-5.3	COc1cccc(NC(=O)N[C@@H]2C=C[C@@H](CC(=O)N3CCN(C)CC3)O[C@@H]2CO)c1
-0.7	CO[C@H]1CN(C)C(=O)c2ccc(NC(=O)c3ccno3)cc2OC[C@H](C)N(C(=O)C2CCC2)C[C@H]1C
0.1	C[C@@H]1CN([C@H](C)CO)C(=O)c2cc(NC(=O)Nc3ccc(C(F)(F)F)cc3)ccc2O[C@@H](C)CCCCO[C@@H]1CN(C)Cc1ccc(Cl)c(Cl)c1
3.9	CCN(C[C@H]1[C@H](c2ccc(-c3ccccc3)cc2)[C@H](CO)N1CC1CC1)C(C)=O
-7.8	Cc1ccccc1C1N=C2Oc3ccccc3C=C2C(=O)N1 (stereo not given)
-1.7	Cn1cnc(S(=O)(=O)N[C@H]2C=C[C@@H](CC(=O)NCC3CC3)O[C@H]2CO)c1
-8.8	CCCC(=O)N1CC2(CN(C(=O)C3CC3)C2)c2c(n(C)c3cc(OC)ccc23)[C@@H]1CO
-2.2	CN1CCN(C(=O)C[C@H]2CC[C@H]3[C@@H](COC[C@@H](O)CN3Cc3cccc(-c4ccncc4)c3)O2)CC1
-3.2	O=C(C1CCCCC1)N1CC(=O)N2[C@H](CO)[C@H](c3ccc(-c4cccnc4)cc3)[C@H]2C1
5.7	CN(C)Cc1csc(NC(=O)Nc2cccc(Cl)c2)n1
-1.7	COCC#Cc1ccc([C@H]2[C@@H](CO)N3C(=O)CN(C(=O)C4CCCCC4)C[C@H]23)cc1
-6.4	COc1cccc(-c2ccc3c(c2)[C@H]2[C@H](CCN2C(=O)c2cccc(F)c2)[C@H](CO)N3)c1
0.0	C[C@@H]1CN([C@H](C)CO)S(=O)(=O)c2ccc(C#CC(C)(C)O)cc2O[C@@H]1CN(C)C
11.4	COc1cccc(C#Cc2cnc3c(c2)C(=O)N([C@@H](C)CO)C[C@H](C)[C@@H](CN(C)C)O3)c1
0.5	CN(C)c1ccc2c(c1)[C@H]1C[C@H](CC(=O)NCc3ccccc3F)O[C@H](CO)[C@H]1O2
2.6	O=C(C[C@H]1C[C@H]2c3cc(NC(=O)NC4CCCC4)ccc3O[C@H]2[C@@H](CO)O1)NCCN1CCCCC1
0.2	C[C@H]1CN([C@@H](C)CO)C(=O)c2cc(NS(=O)(=O)c3cccs3)ccc2O[C@H]1CN(C)Cc1ccc2c(c1)OCO2
-4.5	CS(=O)(=O)N1[C@H](CO)[C@@H](c2ccccc2)C12CN(C(=O)C1CC1)C2
1.5	COc1ccc(-c2ccc([C@@H]3[C@@H](CO)N4C(=O)CN(Cc5ccc(F)cc5)C[C@@H]34)cc2)cc1
-0.3	C[C@H]1CN([C@@H](C)CO)C(=O)c2cccc(NC(=O)Nc3ccccc3)c2O[C@@H]1CN(C)CC1CC1
-0.4	COc1ccc(C(=O)N2CCC(C)(C(=O)NS(=O)(=O)C3CC3)C2)cc1 (stereo not given)
0.9	CC(C)C(=O)Nc1cccc(COc2cccc(CN(Cc3ccccc3)C(=O)OC(C)(C)C)c2)c1

# (continued)
MLL AF4-AF9 inh	structure
1.4	C[C@@H]1CN([C@H](C)CO)C(=O)Cc2cc(NC(=O)CCCCCC(=O)Nc3ccccc3N)ccc2O[C@@H]1CN(C)S(=O)(=O)c1cn(C)cn1
-2.3	CCCNC(=O)C[C@H]1CC[C@@H]2[C@H](COC[C@H](O)CN2C(=O)c2cccnc2)O1
-3.0	CCCCS(=O)(=O)N1CCCc2nc(-c3ccc(OC)cc3)ccc21
-2.5	O=C(NCCO)c1cccc(-c2cccc3nccn23)c1
0.9	COc1ccc(-c2ccc3c(c2)[C@H]2[C@H](CCN2C(=O)Nc2ccccc2OC)[C@H](CO)N3C)cc1
1.5	C[C@@H]1CN([C@@H](C)CO)C(=O)c2cc(C#Cc3ccccc3F)cnc2O[C@@H]1CN(C)C(=O)Cc1ccncc1
1.3	C[C@@H]1CCCCO[C@H](CN(C)Cc2ccc(C(F)(F)F)cc2)[C@@H](C)CN([C@@H](C)CO)C(=O)c2cc(NS(=O)(=O)c3ccccc3)ccc2O1
-3.3	COC(=O)C[C@@H]1CC[C@@H]2[C@H](COC[C@@H](O)CN2S(=O)(=O)c2ccc(F)cc2)O1
-6.1	CCCC#Cc1ccc2c(c1)O[C@@H](CN(C)C(=O)c1ccncc1)[C@H](C)CN([C@H](C)CO)S2(=O)=O
-1.5	CO[C@@H]1CN(C)C(=O)c2cc(NC(=O)c3cnccn3)ccc2OC[C@H](C)N(CC2CC2)C[C@@H]1C
-0.7	O=C(NCc1ccc(Cl)c(Cl)c1)c1cc(C2CCCCN2C(=O)c2cccs2)on1 (stereo not given)
-0.4	C[C@@H]1CN([C@H](C)CO)C(=O)c2cc(Br)cnc2O[C@H]1CN(C)Cc1ccc2c(c1)OCO2
0.2	C[C@H]1CCCCO[C@H](CN(C)Cc2ccc(C(F)(F)F)cc2)[C@@H](C)CN([C@@H](C)CO)C(=O)c2cc(NS(=O)(=O)c3ccccc3)ccc2O1
-1.9	CC(C)NC(=O)N[C@H]1CC[C@H](CC(=O)NCCCN(C)C)O[C@H]1CO
1.4	Cc1ccc(-c2ccc3c(c2)O[C@H](CN(C)C(=O)Nc2ccc(C(F)(F)F)cc2)[C@@H](C)CN([C@@H](C)CO)S3(=O)=O)cc1
-4.5	CC(=O)N(C)C[C@@H]1Oc2ncc(-c3ccc(F)cc3)cc2C(=O)N([C@@H](C)CO)C[C@H]1C
-2.4	OC(CSc1nnnn1-c1ccccc1)Cn1c2ccccc2c2ccccc21 (stereo not given)
1.1	C[C@@H]1CN([C@H](C)CO)S(=O)(=O)c2ccc(-c3ccc(C(=O)N(C)C)cc3)cc2O[C@@H]1CN(C)C(=O)C1CCCCC1
-0.2	CN1CCN(C(=O)C[C@@H]2CC[C@H]3[C@@H](COC[C@@H](O)CN3Cc3cccc(F)c3)O2)CC1
1.4	CCC(=O)N1[C@@H](CO)[C@@H](c2ccc(-c3cccnc3)cc2)[C@@H]1CN(CC)C(C)=O
-1.3&-1.6	C[C@H](CO)N1C[C@H](C)[C@@H](CN(C)S(C)(=O)=O)Oc2cc(Br)ccc2S1(=O)=O
1.5	C/C=C/c1ccc([C@H]2[C@@H](CO)N(CCC(F)(F)F)C23CN(C(=O)COC)C3)cc1
-0.4	Cc1cc(Br)cn2c(Cc3cccc(F)c3)c(-c3ccc(C#N)cc3)nc12
-7.8	C[C@@H]1CN([C@H](C)CO)C(=O)c2cc(NC(=O)Nc3ccccc3)ccc2O[C@@H]1CN(C)S(=O)(=O)c1ccc(F)cc1
-0.9	CO[C@H]1CN(C)C(=O)c2ccc(NC(=O)NC(C)C)cc2OC[C@H](C)N(Cc2ccccn2)C[C@H]1C

# Additional compounds follow.
MLL AF4-AF9 inh	structure
-0.4	C[C@@H]1CN([C@H](C)CO)C(=O)Cc2cc(NC(=O)C3CCCCC3)ccc2O[C@H]1CN(C)Cc1ccc(C(=O)O)cc1
-0.1	Cc1noc(C)c1NC(=O)N(C)C[C@H]1Oc2cc(C#CCN(C)C)ccc2S(=O)(=O)N([C@@H](C)CO)C[C@@H]1C
0.6	CC(C)(O)CN(CCCNC(=S)Nc1ccccc1)C(=S)Nc1ccccc1
2.4	Cc1ccccc1-c1ccc([C@H]2[C@@H](CO)N3C(=O)CN(C(=O)Nc4ccc(F)cc4)C[C@H]23)cc1
7.0	Cc1noc(C)c1NC(=O)Nc1ccc2c(c1)C(=O)N([C@H](C)CO)C[C@@H](C)[C@H](CN(C)Cc1ccc(Oc3ccccc3)cc1)O2
-0.8	CCCC#Cc1cnc2c(c1)C(=O)N([C@H](C)CO)C[C@@H](C)[C@H](CN(C)C(=O)Nc1c(C)noc1C)O2
-3.3	CC=Cc1ccc2n(c1=O)C[C@H]1[C@H](CO)[C@@H](C(=O)NCCC)N(CC3CCOCC3)[C@@H]21 (mixture of isomers)
-2.9	COc1ccc(NC(=O)Nc2ccc3c(c2)C(=O)N([C@H](C)CO)C[C@H](C)[C@H](CN(C)C(=O)NC2CCCCC2)OCCCC[C@@H](C)O3)cc1
-5.0	CO[C@@H]1CN(C)C(=O)c2cc(NC(=O)C3CC3)ccc2OC[C@@H](C)N(C(=O)c2cnccn2)C[C@H]1C
-25.4	CC(C)(O)C#Cc1ccc([C@H]2[C@@H](CO)N3CCCCN(C(=O)c4ccncc4)C[C@H]23)cc1
-0.1	CCCC#Cc1ccc2c(c1)[C@H]1[C@H](CCN1S(=O)(=O)c1ccc(C)cc1)[C@H](CO)N2C
3.9	C[C@H]1CN([C@@H](C)CO)C(=O)c2cccc(NC(=O)c3nc4ccccc4s3)c2O[C@@H]1CN(C)C(=O)Nc1ccccc1
-1.3	Cc1noc(C)c1NC(=O)N(C)C[C@H]1Oc2c(NC(=O)NC3CCCCC3)cccc2C(=O)N([C@@H](C)CO)C[C@@H]1C
-0.7	O=C(C[C@@H]1CC[C@H](NS(=O)(=O)c2ccccc2)[C@H](CO)O1)N1CCC(Cc2ccccc2)CC1
0.7	Cc1noc(C)c1NC(=O)N(C)C[C@@H]1Oc2c(NS(=O)(=O)c3ccccc3)cccc2C(=O)N([C@H](C)CO)C[C@@H]1C
-2.3	COC(=O)N(C)C[C@H]1OCc2ccccc2-c2ccccc2C(=O)N([C@@H](C)CO)C[C@@H]1C
-2.1	C[C@H](CO)N1C[C@H](C)[C@@H](CN(C)C(=O)c2cnccn2)Oc2ncc(-c3cccc(F)c3)cc2C1=O
-3.0	CC=Cc1ccc2n(c1=O)C[C@H]1N[C@@H]2[C@@H](C(=O)NC2CCCCC2)[C@@H]1CO (mixture of isomers)
0.9	COC(=O)c1ccc(CN2CC(=O)N3[C@H](CO)[C@H](c4ccc(-c5cccnc5)cc4)[C@H]3C2)cc1
-0.6	CN1C(=O)c2cc(NS(=O)(=O)c3ccccc3Cl)ccc2OC[C@@H]2O[C@H](CC(=O)O)CC[C@@H]21
-18.5	COC(=O)C[C@H]1CC[C@@H](N)[C@@H](CO)O1
0.6	C[C@H]1CCCCO[C@H](CN(C)C(=O)C2CCCCC2)[C@@H](C)CN([C@@H](C)CO)C(=O)c2cc(NC(=O)Cc3ccccc3)ccc2O1
0.7	CO[C@H]1CN(C)C(=O)c2ccc(NC(C)=O)cc2OC[C@@H](C)N(C(=O)Cc2ccccn2)C[C@H]1C
0.2	C[C@@H]1CN([C@H](C)CO)C(=O)c2cc(C#CC3CCCC3)cnc2O[C@H]1CN(C)C(=O)Cc1ccccn1
13.0	C[C@@H]1CCCCO[C@H](CN(C)S(=O)(=O)c2cccs2)[C@@H](C)CN([C@@H](C)CO)C(=O)c2cc(N(C)C)ccc2O1

# Following part:
MLL AF4-AF9 inh	structure
-1.1	Cc1ccc(S(=O)(=O)N[C@@H]2C=C[C@@H](CC(=O)NCCc3ccncc3)O[C@H]2CO)cc1
-1.3	C[C@H]1CN([C@@H](C)CO)C(=O)c2cc(NC(=O)CCCN(C)C)ccc2O[C@@H]1CN(C)Cc1ccccc1
0.7	C[C@H]1CN([C@@H](C)CO)S(=O)(=O)c2ccc(C#CC3CC3)cc2O[C@@H]1CN(C)C(=O)CN(C)C
4.9	COc1ccc(S(=O)(=O)Nc2ccc3c(c2)C(=O)N([C@@H](C)CO)C[C@@H](C)[C@@H](CN(C)Cc2ccc(C(F)(F)F)cc2)OCCCC[C@@H](C)O3)cc1
4.7	O=C(Nc1cc(F)ccc1F)N1CC(=O)N2[C@H](CO)[C@@H](c3ccc(/C=C/c4ccccc4)cc3)[C@@H]2C1
-3.0	C[C@@H]1CCCCO[C@@H](CN(C)Cc2ccncc2)[C@H](C)CN([C@@H](C)CO)C(=O)c2cc(NC(=O)c3ccccc3)ccc2O1
-0.2&-0.9&2.9	Cc1ccc(OC(=O)N(C)C[C@@H]2OCc3cn(nn3)CCCC(=O)N([C@H](C)CO)C[C@H]2C)cc1
1.8	C[C@@H]1CN([C@@H](C)CO)C(=O)c2cc(NC(=O)Nc3ccc4c(c3)OCO4)ccc2O[C@@H](C)CCCCO[C@H]1CN(C)S(=O)(=O)c1ccccc1
-2.8	Cc1noc(C)c1NC(=O)Nc1ccc2c(c1)CC(=O)N([C@@H](C)CO)C[C@H](C)[C@H](CN(C)CC1CC1)O2
1.0	COc1ccc(CN(C)C[C@H]2Oc3c(NS(C)(=O)=O)cccc3C(=O)N([C@@H](C)CO)C[C@@H]2C)cc1

# Part of the list above in order of heavy-atom count, rising:
MLL AF4-AF9 inh	structure
-18.5	COC(=O)C[C@H]1CC[C@@H](N)[C@@H](CO)O1
-4.5	CS(=O)(=O)N1[C@H](CO)[C@@H](c2ccccc2)C12CN(C(=O)C1CC1)C2
-3.0	CC=Cc1ccc2n(c1=O)C[C@H]1N[C@@H]2[C@@H](C(=O)NC2CCCCC2)[C@@H]1CO (mixture of isomers)
-3.2	O=C(C1CCCCC1)N1CC(=O)N2[C@H](CO)[C@H](c3ccc(-c4cccnc4)cc3)[C@H]2C1
11.4	COc1cccc(C#Cc2cnc3c(c2)C(=O)N([C@@H](C)CO)C[C@H](C)[C@@H](CN(C)C)O3)c1
-4.3	C[C@H](CO)N1C[C@H](C)[C@H](CN(C)C(=O)C2CCC2)Oc2cc(C3=CCCC3)ccc2S1(=O)=O
1.0	COc1ccc(CN(C)C[C@H]2Oc3c(NS(C)(=O)=O)cccc3C(=O)N([C@@H](C)CO)C[C@@H]2C)cc1
-0.9	CO[C@H]1CN(C)C(=O)c2ccc(NC(=O)NC(C)C)cc2OC[C@H](C)N(Cc2ccccn2)C[C@H]1C
1.5	C[C@@H]1CN([C@@H](C)CO)C(=O)c2cc(C#Cc3ccccc3F)cnc2O[C@@H]1CN(C)C(=O)Cc1ccncc1
-1.3	Cc1noc(C)c1NC(=O)N(C)C[C@H]1Oc2c(NC(=O)NC3CCCCC3)cccc2C(=O)N([C@@H](C)CO)C[C@@H]1C
0.6	C[C@H]1CCCCO[C@H](CN(C)C(=O)C2CCCCC2)[C@@H](C)CN([C@@H](C)CO)C(=O)c2cc(NC(=O)Cc3ccccc3)ccc2O1
